Rango complex inh: Rango-importin beta binding inhibition; Q14974; Rango CFP/YFP FRET sensor + importin beta, 45 min; Potency, µM (series often up to 92.2 µM), for the others: at the highest dose inhibition of complex formation; actives 0.031% (n = 340,000); AID 540263; active = rising FRET ratio curve, often small or poorly fitted; inconclusive = mostly compound fluorescence or quenching in the first reads; inactive = flat curves in all reads;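 note: potency is the fitted concentration of half-maximal effect; 0% = DMSO wells and 100% = buffer wells lacking importin beta; nearly all actives have a fitted effect of over 15% in size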
Target sequence (Q14974 whole entry, looked up): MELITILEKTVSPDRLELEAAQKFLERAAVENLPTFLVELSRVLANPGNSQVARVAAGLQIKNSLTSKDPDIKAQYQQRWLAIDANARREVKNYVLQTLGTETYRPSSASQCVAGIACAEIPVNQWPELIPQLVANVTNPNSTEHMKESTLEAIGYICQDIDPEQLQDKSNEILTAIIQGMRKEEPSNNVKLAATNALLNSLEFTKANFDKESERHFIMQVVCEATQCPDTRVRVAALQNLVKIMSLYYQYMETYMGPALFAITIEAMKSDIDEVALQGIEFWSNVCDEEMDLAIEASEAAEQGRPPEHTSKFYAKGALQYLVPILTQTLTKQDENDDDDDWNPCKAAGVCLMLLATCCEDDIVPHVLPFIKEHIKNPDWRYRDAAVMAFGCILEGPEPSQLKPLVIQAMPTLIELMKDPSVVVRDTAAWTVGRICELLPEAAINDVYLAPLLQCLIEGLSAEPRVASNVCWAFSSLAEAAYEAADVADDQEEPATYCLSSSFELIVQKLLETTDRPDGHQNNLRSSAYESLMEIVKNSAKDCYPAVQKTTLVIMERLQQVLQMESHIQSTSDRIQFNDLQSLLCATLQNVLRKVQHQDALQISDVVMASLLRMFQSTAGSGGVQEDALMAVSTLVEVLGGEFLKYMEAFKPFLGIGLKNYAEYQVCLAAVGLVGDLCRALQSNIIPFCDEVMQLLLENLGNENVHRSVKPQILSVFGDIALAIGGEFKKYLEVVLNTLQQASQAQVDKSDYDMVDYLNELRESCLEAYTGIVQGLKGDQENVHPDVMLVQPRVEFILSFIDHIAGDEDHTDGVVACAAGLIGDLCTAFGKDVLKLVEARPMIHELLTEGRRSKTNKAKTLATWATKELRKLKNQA
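Inhibition scored from the CFP 486 nm/YFP 530 nm FRET ratio 45 min after adding 0.125 microM importin beta to 50 nM Rango biosensor preincubated 5 min with compound (room temperature, PBS with DTT, Tween-20, BSA). No-importin wells as positive control.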
miR-21 reporter: miR-21 reporter, rising signal; AID 2288; HeLa miR-21 FLuc reporter, luciferase, 48 h; 340,000 tested, under 10 active; Potency, µM (highest dose often 38.3 µM), inactives show at the highest dose reporter change, positive = more light; active = well fitted rising curve with a large enough effect; inconclusive = small, poorly fitted or top-dose-only effect; inactive = no such curve, though single readings can be large or run the other way;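 note: % of control where 0% means no effect; miR-21 action dims this reporter so a rising signal means less miR-21 action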
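HeLa cells stably expressing CMV-driven firefly luciferase with a downstream miR-21 binding sequence, endogenously expressing miR-21, were treated with titrations (up to about 40uM final) for 48 hours at 37 degree Celsius. Luciferase luminescence was read after lysis.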
GLA inh pH 4.5: alpha-galactosidase A (human) inhibition, pH 4.5 | activity change, negative = inhibition, % at 105 µM | P06280 | purified enzyme, 4-MU-alpha-Gal fluorescence, pH 4.5 | 230,000 tested, under 10 active; inconclusive = small, poorly fitted or top-dose-only inhibition, or a rising curve; inactive = flat fitted curve, though single readings scatter; no compound was filed as active;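 note: 0% = full activity with enzyme and -100% = basal without enzyme; dose as in the result columns while the protocol names 77 µM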
Rango dissoc inh: inhibition of RanGTP-driven Rango-importin beta dissociation | actives 0.071% (n = 340,000) | AID 540253 | O95149+P62826 | Potency, µM (titrated, usually from 46.1 µM), without a hit: at the top dose activity change, negative = inhibition | Biochemical FRET Rango-importin beta, RanGTP-induced dissociation; active means falling FRET ratio curve, often poorly fitted, with flat reads before Ran was added; inconclusive means other falling curves, or compound fluorescence or quenching; inactive means flat or rising ratio curve;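 note: potency is the fitted concentration of half-maximal effect; % of control where 0% means no effect; nearly all actives have a fitted effect of over 45% in size; -100% = wells without RanGTP and RCC1; the record marks most hits as doubtful in a second field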
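Compounds preincubate 5 min with complex of recombinant Rango and importin beta in PBS with 1 mM DTT. Ran (0.6 uM) loaded with 2 mM GTP plus 0.2 uM RCC1 starts dissociation; FRET is recorded 45 min later.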
Starred values were filed as active, the others as inactive; ? = inconclusive; nt = not tested or not shown; & = joins results of further samples; [ ] = remark or other dose.

smiles	Rango complex inh	miR-21 reporter	GLA inh pH 4.5	Rango dissoc inh
NS(=O)(=O)c1ccc(CCNc2nc3c(-c4cccc(F)c4)nnn3c3ccccc23)cc1	-1.8%	-3%	15	-9%
CSc1nc(-c2ccco2)nn1S(=O)(=O)c1ccccc1	nt	-1%	-6	nt
CCONC(=O)Nc1ccccc1[N+](=O)[O-]	-0.7%	-16%	-14	-5%
Cc1[nH]n(-c2ccc([N+](=O)[O-])cc2)c(=O)c1C=NCCc1c[nH]c2ccccc12	0.8%	-3%	-4	16%
O=C(CN1CCCCC1)c1c[nH]c2ccccc12	-0.7%	-1%	nt	21%
CS(=O)(=O)N1CCN(C(=O)c2ccc(-c3ccccc3)cc2)CC1	-1.9%	3%	0	9%
Cc1ccc(C)c(N2CCN(C(=O)CCc3nc(-c4ccccc4)no3)CC2)c1	-0.3%	nt	nt	9%
COc1ccc(OC)c(CNC(=O)C2CCN(S(=O)(=O)N3CCCCC3)CC2)c1	0.0%	-1%&2%	nt	0%

Following part.
smiles	Rango complex inh	miR-21 reporter	GLA inh pH 4.5	Rango dissoc inh
CCC(c1nnnn1CCc1ccccc1)N1CCN(C(=O)c2ccco2)CC1 (stereo unspecified)	-0.2%	-5%	1	22%
O=C(c1ccc(NC(=S)Nc2ccc(Cl)c(Cl)c2)cc1)N1CCCC1	-1.3%	0%	9	-13%
CNC(=S)Nc1ccc(OCc2ccccc2)cc1	-0.7%	-24%	4	-7%
Cc1cc(C)c(NC(=S)N(CCc2ccncc2)C(C)C)c(C)c1	-1.8%	1%	-2[21.1 µM]	30%
CC(=O)c1cccc(NC(=O)CN2CCN(S(=O)(=O)/C=C/c3ccccc3)CC2)c1	-3.9%	nt	nt	-11%
COc1ccc(NC(=S)N2CCCN(Cc3cccc(Cl)c3)C2)cc1	3.4%	-2%	-4	-18%
CC[C@]12c3[nH]c4cc(-c5ccco5)ccc4c3CCN1C(=O)[C@@H](CC(=O)NCCc1ccccn1)C[C@@H]2C(=O)N1CCN(C(=O)C2CC2)CC1	?	nt	nt	-23%
CCOC(=O)C/C(C)=N/NC(=O)C1CC1(c1ccccc1)c1ccccc1 (stereo unspecified)	-0.5%	-4%	1	1%

(next part)
smiles	Rango complex inh	miR-21 reporter	GLA inh pH 4.5	Rango dissoc inh
CCCC(=O)n1nc(NCc2ccc(OC)cc2)nc1NCc1ccc(OC)cc1	3.0%	-1%	?	-15%
CSCCC(NC(=O)c1ccccc1Cl)C(=O)N(C)Cc1cccs1 (stereo unspecified)	3.1%	-1%	nt	6%
O=C1c2cccc3c(O)ccc(c23)C(=O)N1c1ccc(Cl)cc1	?	-60%	nt	?
CCOC(=O)c1c(C=O)c(C)n(Cc2ccccc2Cl)c1C	2.2%	-25%	-7	2%
COc1ccc(NC(=O)Nc2ccc3c(c2)C(=O)N([C@@H](C)CO)C[C@@H](C)[C@@H](CN(C)CC2CCCCC2)O3)cc1	-1.3%	nt	nt	2%
O=C(COc1ccc(Br)cc1)NCc1ccccn1	-5.3%	-5%	1	-7%
Cc1nn(Cc2ccccc2)c(Cl)c1C(=O)NCc1ccco1	-0.1%	-11%	-14	-3%
CCc1nc(N[C@@H](CC(C)C)C(=O)O)c2oc3ccccc3c2n1	-1.8%	-2%	-11	2%

Next part.
smiles	Rango complex inh	miR-21 reporter	GLA inh pH 4.5	Rango dissoc inh
CCOC(=O)/C(N=Nc1sc(C(=O)OCC)c(C)c1C(=O)OCC)=C(\C)O	nt	-12%	-4	nt
CC(C)(C)OC(=O)NC(CCNC=C1C(=O)OC(C)(C)OC1=O)C(=O)O (stereo unspecified)	-1.5%	-5%	1	3%
O=C(NN=Cc1ccccc1OC(F)F)c1ccc(NS(=O)(=O)c2cccs2)cc1	-2.5%	nt	nt	1%
CC(C)(C)OC(=O)N(Cc1ccccc1)Cc1cccc(OCc2cccc(NC(=O)C3CC3)c2)c1	1.0%	nt	nt	11%
Cc1nn(Cc2ccc(Cl)c(Cl)c2)c(C)c1NC(=O)c1cc(-c2ccco2)on1	-3.6%	21%	6	-17%
COC(=O)c1ccc(OC(=O)c2cnccn2)cc1	1.6%	-1%	nt	9%
Cc1csc(NC(=O)CSc2nnc3c4ccccc4nc(C(C)(C)C)n23)n1	?	0%	11	0%
CC(C)c1ccc(N(CC(=O)NCCSCc2ccco2)S(C)(=O)=O)cc1	-4.4%	-9%	7	1%

The list goes on:
smiles	Rango complex inh	miR-21 reporter	GLA inh pH 4.5	Rango dissoc inh
COc1ccc(OCc2nnc(SCC(=O)NCC3CCCO3)n2N)cc1 (stereo unspecified)	1.2%	nt	nt	-2%
CSc1ncc(Cl)c(C(=O)Nc2ccccc2[N+](=O)[O-])n1	-0.2%	0%	nt	6%
CC(C)=C1C2CCC1C(C(=O)NCCc1ccccc1)C2C(=O)O (stereo unspecified)	1.9%	-8%	3	-2%
CCOC(=O)c1oc2c(c1C)/C(=N/O)CCC2	7.7%	-75%	4	9%
COc1cccc(C=NNC(=O)c2ccncc2)c1O	0.0%	nt	nt	-3%
O=C(NCC1CCCO1)c1ccccc1NS(=O)(=O)c1cc([N+](=O)[O-])ccc1Cl (stereo unspecified)	0.0%	nt	nt	-11%
Cc1ccc2c(c1)CCCN2C(=O)c1ccco1	1.3%	0%	11	1%
CCOc1ccc(N(CC(=O)Nc2ccc(CC)cc2)S(=O)(=O)c2c(C)[nH]c(=O)[nH]c2=O)cc1	1.2%	-5%	nt	6%

Four entries from above, sorted by the number in miR-21 reporter, falling.
smiles	Rango complex inh	miR-21 reporter	GLA inh pH 4.5	Rango dissoc inh
Cc1ccc2c(c1)CCCN2C(=O)c1ccco1	1.3%	0%	11	1%
CCOc1ccc(N(CC(=O)Nc2ccc(CC)cc2)S(=O)(=O)c2c(C)[nH]c(=O)[nH]c2=O)cc1	1.2%	-5%	nt	6%
CC(C)=C1C2CCC1C(C(=O)NCCc1ccccc1)C2C(=O)O (stereo unspecified)	1.9%	-8%	3	-2%
CCOC(=O)c1oc2c(c1C)/C(=N/O)CCC2	7.7%	-75%	4	9%

Remaining list, next part.
smiles	Rango complex inh	miR-21 reporter	GLA inh pH 4.5	Rango dissoc inh
Cc1c(NS(=O)(=O)c2cccc3nsnc23)c(=O)n(-c2ccccc2)n1C	-1.7%	1%	0	1%
CCOc1ccc(C2C(C(=O)Nc3ccc(F)cc3)=C(C)Nc3nc(CCCO)nn32)cc1 (stereo unspecified)	5.0%	-9%	4	11%
O=C(O)CSc1cc(C(=O)c2ccccc2O)cn2c(=O)c3c(-c4ccccc4)csc3nc12	?	-4%	-3	?
CC(C)Cn1c(=O)c(C(=O)Nc2ccccc2S(N)(=O)=O)c(O)c2ccccc21	?	-18%	0	5%
Cc1ccc(NC(=O)c2ccc3nc[nH]c3c2)c(O)c1	-3.6%	-59%	1	9%
CC1=NN(c2ccccc2C)C(=O)C1	4.0%	nt	nt	0%
C#CCOCCOCCOCCNc1nc(N2CCN(C(=O)[C@H](CO)n3cc([C@@H](N)C(C)C)nn3)CC2)nc(N2CCN(C(=O)[C@H](CO)n3cc([C@@H](N)C(C)C)nn3)CC2)n1	0.6%	nt	nt	0%
OCCN1CCN(c2nnc(-c3ccccc3)c3ccccc23)CC1	-3.4%	-1%	nt	8%

Look-ups from the list:
miR-21 reporter result of O=C(O)CSc1cc(C(=O)c2ccccc2O)cn2c(=O)c3c(-c4ccccc4)csc3nc12 is entered as -4%
Rango complex inh result of C#CCOCCOCCOCCNc1nc(N2CCN(C(=O)[C@H](CO)n3cc([C@@H](N)C(C)C)nn3)CC2)nc(N2CCN(C(=O)[C@H](CO)n3cc([C@@H](N)C(C)C)nn3)CC2)n1 is entered as 0.6%

(cont.)
molecule	Rango complex inh	miR-21 reporter	GLA inh pH 4.5	Rango dissoc inh
O=C1c2ccccc2CN1CCNS(=O)(=O)c1ccc(Cl)cc1	-3.1%	-7%	1	-10%
NC(=O)c1cc(C(=O)Cc2ccc(Cl)cc2)c[nH]1	2.3%	-48%	nt	-9%
Cc1ccccc1CN1CCC(CNC(=O)Nc2ccc(F)cc2F)CC1	0.0%	1%	nt	14%
Cc1ccc(C(=O)NC2c3ccccc3-c3ccccc32)cc1	0.9%	20%	-5	1%
O=C(O)CC(CCc1ccccc1)OC1OC(CO)C(O)C(O)C1O (stereo unspecified)	?	0%	1	-4%
CCOC(=O)Nc1ccc(S(=O)(=O)NCc2ccccc2)cc1	0.0%	6%	2	3%
CCC(=O)c1ccc2ncccc2c1	-1.4%	-22%	5	23%
CCc1cc2c(COC(=O)c3cccc(NS(C)(=O)=O)c3)cc(=O)oc2cc1O	?	23%	nt	?
Cc1cc(SCC(=O)N(C)c2c(N)n(Cc3ccccc3)c(=O)[nH]c2=O)nc2ccccc12	-3.3%	-4%	3	0%
O=C(O)c1ccccc1S(=O)CCO (stereo unspecified)	-5.5%	-3%	-4	-4%
CCc1ccc2nc(SCC(=O)N(CC)CC)c(C#N)cc2c1	4.1%	-23%	-3	-10%
Cc1nc2ccccc2c(=O)n1NC(=O)c1ccc(Cl)c([N+](=O)[O-])c1	-3.0%	-4%	nt	8%
O=C(Nc1ccc(Cl)cc1)Nc1ccc2c(c1)N1CCN=C1S2	-0.5%	26%	2	15%
COc1cccc(-n2c(CNc3ccc(F)cc3)nnc2SCC(N)=O)c1	2.9%	-3%	1	-11%
Nc1nccnc1C(=O)OCC(=O)NCCc1ccc(S(N)(=O)=O)cc1	?	nt	nt	-16%
Cc1cnc(C(=O)OCC(=O)Nc2ccc(C)c(S(=O)(=O)N3CCCCCC3)c2)cn1	-0.1%	-2%	6	10%
COc1ccc(S(=O)(=O)n2nc(OC(=O)c3ccncc3)cc2N)cc1	-6.5%	-1%	-1	17%
Cc1ccc(C(=O)n2c(=S)nc3ccccn32)cc1	nt	-54%	-2	nt
Cc1ccc(N=CC=C2OC(C)(C)C(C)(C)O2)cc1	?	-8%	-7	?
COc1cc(OC)c(C2C(C#N)=C(N)Oc3cc(C)n(CCCN4CCOCC4)c(=O)c32)cc1OC (stereo unspecified)	4.2%	-4%	-6	-10%
COc1ccc(C(=O)Nc2cccc3nc(C)ccc23)c(OC)c1	-0.5%	-1%	nt	-7%
CCS(=O)(=O)N1Cc2ccccc2CC1C(=O)Nc1ccc(F)cc1 (stereo unspecified)	-2.0%	-33%	-13	-2%
O=C(CN1C(=O)CSC1=O)Nc1ccccc1N1CCOCC1	1.0%	-7%	0	6%
Clc1ccc(COc2ccccc2-c2ccnc3ncnn23)cc1	0.5%	-61%	7	-18%
O=C(c1cccs1)N1N=C(c2ccccc2)CC1c1ccc(O)cc1 (stereo unspecified)	6.1%	-19%	-2	5%
CN(C(=O)CSc1nnc(COc2ccccc2F)n1N)C1CCS(=O)(=O)C1 (stereo unspecified)	2.1%	nt	nt	0%
COc1cccc(CN(C)C(=O)C2CSC3(C)CCC(=O)N23)c1OC (stereo unspecified)	-5.7%	nt	nt	10%
Oc1c(I)cc(I)c2cccnc12	3.1%	-2%	-2&-2	-14%
O=C(NC(=S)Nc1ccc2oc(=O)ccc2c1)c1ccc(-c2cccc(Cl)c2Cl)o1	nt	0%	5	nt
Cc1cccc(CC(C)NC(=O)c2cc(COc3ccc(C)c(C)c3)on2)n1 (stereo unspecified)	-4.2%	-28%	nt	-9%

(next part)
molecule	Rango complex inh	miR-21 reporter	GLA inh pH 4.5	Rango dissoc inh
O=C(Cn1nnc(-c2ccccc2Cl)n1)N/N=C/c1ccc(-c2cccc(Cl)c2)o1	-4.5%	-1%	5	-9%
CCn1nc(C)c(C(=O)Nc2cc(Oc3ccc(Cl)cc3)cc([N+](=O)[O-])c2)c1C	-4.9%	19%	-8	4%
CCSc1ccc([C@@H]2[C@@H]3C(=O)N(C)C(=O)[C@@H]3[C@]3(C(=O)OC)CCCCN23)cc1OC	-0.1%	nt	nt	-19%
CC(C)CNC(=O)c1ccc(Cl)c(NC(=O)COc2ccccc2)c1	nt	-5%	4	nt
CCOC(=O)N1CCN(c2cc(=O)n(-c3ccccc3C)c(=O)[nH]2)CC1	-2.0%	-2%	-17	-6%

These rows are one share of the data. The share of hits here may be higher or lower than overall.
